From PubChem BioAssay
A488 autofl: compound autofluorescence in A488 spectral region; max dye equivalency, M; 59,000 tested, 0.1% active; AID 591; compound autofluorescence, A488 spectral region, dye equivalency; stronger effect = higher value; active = above 10 nM dye equivalent; inconclusive = 1 to 10 nM; inactive = 1 nM or less; about half of its hits are not listed in these tables;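 also: highest value over a series up to 38 µM; compound alone in buffer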
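Intrinsic compound fluorescence is measured in 100 mM Tris buffer at pH 8.0 following 15 min incubation at room temperature. Intensities at 480 nm excitation/540 nm emission are calibrated to an on-plate A488 concentration series, giving dye-equivalent concentrations.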
A647 autofl: compound fluoresces in the A647 spectral region; Compound fluorescence, A647 channel (570/671 nm), Tris buffer; max dye-equivalent concentration, M; 59,000 tested, under 10 active; active means above 1 µM dye equivalent; inconclusive means 0.1 to 1 µM; inactive means 0.1 µM or less;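 also: values scaled relative to a standard on each plate; highest value over a series up to 38 µM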
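Buffer was dispensed, compounds and Alexa 647 standards were pin-transferred, and plates sat 15 min at room temperature. Intensity at 570/671 nm was then converted to dye-equivalent concentration using the plate's A647 standard curve.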
AID923: qHTS Assay for Allosteric/Competitive Inhibitors of Caspase-1: Spectroscopic Profiling in AFC Spectral Region; Potency, µM (highest dose often 57.5 µM), inactives show at the top dose fluorescence increase, usual class: activators; 75,000 tested, 1.1% active; compound fluorescence, AFC spectral region (405/520 nm); almost no hit is shown here; active = well fitted activation curve with a large enough effect; inconclusive = small, poorly fitted or top-dose-only effect;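 also: potency is read from the fitted curve at half-maximal effect; 0% is about no effect; scaled to a free AFC standard on each plate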
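Titrations up to 57 uM read every 20 sec for 3 min (405/520 nm) with 50 nM caspase 1 and 5 uM Ac-WEHD-AFC, pH 7.5 HEPES buffer. Fluorescence-vs-time intercept gave baseline, scaled against on-plate AFC standard.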
Resorufin fluor: compound fluoresces in the resorufin spectral region; 59,000 tested, 0.04% active; AID 588; max dye-equivalent concentration, M; Compound fluorescence, resorufin region 547/598 nm, buffer; stronger effect = higher value; active = above 10 nM dye equivalent; inconclusive = 1 to 10 nM; inactive = 1 nM or less; a few of its hits are not listed in these tables; also: highest value over a series up to 38 µM
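Compounds in 100 mM Tris buffer, pH 8.0, incubated 15 min at room temperature, then read with 547 nm excitation and 598 nm emission filters. Fluorescence was converted to dye-equivalent concentration using an on-plate six-point resorufin standard curve.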
TSHR agonist: TSH receptor (human) agonism; P16473; HEK293-CNG-TSHR cells (CNG channel as cAMP sensor), membrane potential dye, cAMP; Potency, µM (titrated, usually from 57.1 µM), without a hit: at the highest dose activation, hits mostly activators; 73,000 tested, 0.48% active; AID 926; active = well fitted activation curve of enough size with the parental cells flat; inconclusive = any curve in the parental cells; inactive = parental cells flat and receptor cells flat or falling; also: potency is read from the fitted curve at half-maximal effect; % of control where 0% means no effect; weak receptor curves with flat parental cells got no call and are not listed
Target sequence (P16473 whole entry, looked up): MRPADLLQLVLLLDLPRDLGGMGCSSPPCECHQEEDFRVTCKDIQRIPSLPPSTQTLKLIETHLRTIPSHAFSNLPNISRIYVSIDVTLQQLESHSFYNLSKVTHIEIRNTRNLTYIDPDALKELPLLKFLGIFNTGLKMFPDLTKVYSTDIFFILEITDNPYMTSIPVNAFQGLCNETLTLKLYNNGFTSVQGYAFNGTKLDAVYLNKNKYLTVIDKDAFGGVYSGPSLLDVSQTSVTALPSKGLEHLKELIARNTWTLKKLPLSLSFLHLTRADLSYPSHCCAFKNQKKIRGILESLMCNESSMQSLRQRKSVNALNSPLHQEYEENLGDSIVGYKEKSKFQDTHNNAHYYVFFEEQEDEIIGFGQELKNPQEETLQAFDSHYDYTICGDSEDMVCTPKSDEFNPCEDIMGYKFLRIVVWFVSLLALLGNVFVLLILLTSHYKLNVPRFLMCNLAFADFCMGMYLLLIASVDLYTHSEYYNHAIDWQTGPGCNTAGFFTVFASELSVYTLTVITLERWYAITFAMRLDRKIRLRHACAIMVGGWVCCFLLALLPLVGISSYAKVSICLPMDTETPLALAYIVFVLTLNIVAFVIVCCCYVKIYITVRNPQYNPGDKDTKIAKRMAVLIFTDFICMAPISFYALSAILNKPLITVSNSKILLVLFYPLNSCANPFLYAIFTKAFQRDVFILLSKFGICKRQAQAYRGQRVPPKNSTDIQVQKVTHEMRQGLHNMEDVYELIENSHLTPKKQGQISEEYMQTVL
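HEK 293 cells stably expressing TSHR and a cAMP-gated CNG channel; parental CNG-only cells as counterscreen. Cells preloaded 60 min with membrane potential dye plus 100 uM RO 20-1724, then compound 30 min; fluorescence read at 590 nm.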
Numbers without * were called inactive; i = inactive; ? = inconclusive; . = not tested or not shown; [ ] = remark or other dose. Only part of the results is shown (hit frequency here may not be typical).

SMILES	A488 autofl	A647 autofl	AID923	Resorufin fluor	TSHR agonist
CCCc1cc(=O)[nH]c(Nc2ccc(OC)c(Cl)c2)n1	i	1e-09	0.5%	i	-3%
CCCn1c(CN2CCCCC2CC)nc2c1c(=O)n(C)c(=O)n2C (centres undefined)	.	.	-2.1%	.	?
CC1CN(C(=O)c2ccc(C(=O)c3ccccc3)cc2)CC(C)O1 (centres undefined)	i	1.5e-09	0.4%	i	1%
CN(C)c1nc(SCC#N)nc(N(C)C)n1	i	2.7e-09	2.4%	i	-2%
COc1cccc(N2C(=O)Nc3ccccc3C2(O)C(=O)NCc2ccc3c(c2)OCO3)c1 (centres undefined)	i	1e-09	0.6%	i	2%
COc1ccc(C(CC(=O)O)NC(=O)c2ccccc2)cc1OC (centres undefined)	i	2.8e-08	-0.1%	i	14%[11.4 µM]
CCC(C)NC(=O)C1c2ccccc2C(=O)N1Cc1ccccc1OC (centres undefined)	i	1e-09	-0.4%	i	15%
COCCNC(=O)CN(c1cc(Cl)ccc1OC)S(C)(=O)=O	i	3.7e-08	0.2%	i	-5%
Cc1ccc(OCc2nnc(SCC(=O)c3ccccc3)n2Cc2ccco2)cc1	i	7.5e-09	-0.4%	i	?
Cc1cc(C)nc(SCC(=O)Nc2ccc(S(=O)(=O)Nc3onc(C)c3C)cc2)n1	.	.	0.0%	.	6%
COC(=O)Cn1c(CCS(=O)(=O)c2ccc(C)c(C)c2)nc2ccccc21	i	1e-09	3.9%	i	5%[11.4 µM]
O=C(C1COc2ccccc2O1)N1CCN(c2ccc(F)cc2)CC1 (centres undefined)	i	1e-09	-0.6%	i	7%
COc1cccc(CCc2ccccc2OCC[C@@H]2C[C@@H](O)CN2C)c1	.	.	-3.8%	.	?
O=C1c2ccccc2C(Nc2ccc(Cl)cn2)N1c1ccccn1 (centres undefined)	.	.	2.9%	.	?
COc1ccc(N2CCN(Cc3nc4c(c(=O)n(C)c(=O)n4C)n3Cc3ccccc3C)CC2)cc1	.	.	-1.7%	.	10µM*
CCc1ccc(NC(=O)C2CC(=O)N=C(N)S2)cc1 (centres undefined)	i	1e-09	0.2%	i	?
N#CC1=C(N)C(C#N)(C#N)[C@H](c2ccncc2)[C@H]2CC3(CC=C12)OCCO3	i	9.2e-09	4.4%	i	3%
CC(=O)c1ccc(OCC(C)C)c(CC(C(N)=O)C(N)=O)c1	.	.	1.2%	.	-9%
COc1ccc(C(=O)Nc2cc(Cl)ccc2Cl)c(OC)n1	i	4.7e-08	0.1%	i	.
CN1CC[n+]2cnc3ccccc3c21	i	6.5e-09	-0.8%	i	0%
COc1ccc(S(=O)(=O)N2CCN(c3cc(-c4ccccc4)nc4ncnn34)CC2)cc1	i	1.6e-08	-0.8%	i	9%
COC(=O)Cn1c(CN2CCOCC2)nc2c1c(=O)[nH]c(=O)n2C	.	.	0.4%	.	-5%
COc1cccc(-c2cc(C(=O)N3CCc4ccccc4C3)no2)c1	i	1e-09	4.1%	i	?
Nc1cc(=O)[nH]c(SCC(=O)Nc2ccc(Br)cc2)n1	i	1e-09	0.7%	i	-1%
CC(=O)NC(Cc1ccc(F)cc1)C(=O)O (centres undefined)	i	4.3e-08	-0.1%	i	0%
COc1ccc(Cn2nnc3c(=O)[nH]c(C4CCCN(C(=O)c5ccccc5)C4)nc32)cc1 (centres undefined)	.	.	-0.6%	.	-1%
OC(CN1CCCCC1)Cn1c(C(F)(F)F)nc2ccccc21 (centres undefined)	i	3.6e-09	3.5%	i	11%
C[C@@H]1C=C[C@](Cc2ccccc2)(C(=O)O)N1C(=O)c1ccccc1	.	.	2.8%	.	4%
O=C(COC(=O)c1n[nH]c2ccccc12)Nc1ccc(S(=O)(=O)N2CCCC2)cc1	i	1e-09	2.5%	i	19%
CCc1ccc(NC(=O)c2cc(-c3ccc(OC)cc3)on2)cc1	i	1.3e-08	0.3%	i	1%
Cc1ccc(C)c(N2CCN(Cc3nnnn3C3CCCCC3)CC2)c1	i	1e-09	2.9%	i	?
CCOC(=O)C1C(=O)CC(C)(O)C(C(=O)OCC)C1c1ccc2c(c1)OCO2 (centres undefined)	.	.	-1.4%	.	25%
Cc1ccc(CNC(=O)CCCNC(=O)c2ccc(Cl)cc2)n1C	i	9.2e-09	-0.9%	i	-5%
CCN1CCc2c(C#N)c(N3CCCCC3)nc(N3CCOCC3)c2C1	i	1e-09	.	i	.
CCOC(=O)C1CCCN(Cc2ccc(OC)cc2OC)C1 (centres undefined)	.	.	-0.7%	.	?
Cc1cccc(N2C(=O)SC(N(C)c3ccccc3)C2=O)c1 (centres undefined)	i	3.8e-08	0.3%	i	-3%
COc1ccc(OC)c(NC(=O)CSCC(=O)O)c1	i	1.5e-08	-1.3%	i	-2%
O=C1c2ccccc2C(=O)N1CCCCN(C(=O)c1ccco1)c1ccc(Cl)cc1	.	.	-1.2%	.	?
CN(CC(O)COc1ccc(OCC(O)CN(C)C2CCCCC2)cc1)C1CCCCC1 (centres undefined)	i	2.2e-08	.	i	.
CC(=O)NC1C(=O)N=C(SCC(=O)NC2CCCCC2)NC1=O (centres undefined)	i	1e-09	-1.9%	i	2%
CCOC(=O)c1cn[nH]c1N	.	.	1.2%	.	-4%
Nc1ccc(-c2n[nH]c(=O)c3ccccc23)cc1N	i	2.5e-08	-0.1%	i	8%
COc1cccc(C2=NOC(C(=O)Nc3ccc(C(C)=O)cc3)C2)c1 (centres undefined)	i	1e-09	-0.5%	i	.
COc1ccc(-c2c3c(=O)n(C)c(=O)n(C)c3c3nnc4ccccc4n23)cc1	i	1e-09	0.7%	i	-9%
COc1ccc(CCNC(=O)c2ccc3c(c2)NC(=O)C(N2CCOCC2)S3)cc1OC (centres undefined)	i	1.6e-09	-1.2%	i	-3%
CCOC(=O)N1CCN(C(=O)CSc2nnc(-c3ccc(Cl)s3)o2)CC1	i	1e-09	-1.1%	i	0%
Cc1[nH]nc2c1/C(=N\O)CC(C)(C)C2	.	.	0.4%	.	11%
CCOC(=O)N1CCN(C(=O)CN(C)S(=O)(=O)c2ccc3c(c2)C(C)(C)C(=O)N3C)CC1	i	7.1e-09	-0.1%	i	-2%
Nc1nnc(-c2ccncc2)s1	i	2.9e-08	-1.4%	i	6%
Cc1ccc(C(=O)NC2CC(C)(C)NC(C)(C)C2)cc1C	i	1e-09	0.9%	i	-3%
O=C(CCN1C(=O)COc2ccccc21)NCCN1CCN(c2ccccc2F)CC1	i	3.9e-08	-0.9%	i	0%[11.4 µM]
c1ccc(-c2cc3c(ccc4nonc43)nn2)cc1	.	.	0.1%	.	?
CCOc1ccc(NC(=O)CN2CCN(CC(=O)Nc3ccc(F)cc3)CC2)cc1	.	.	1.7%	.	-2%
COc1ccc(Oc2ncc3nc(-c4cc(F)cc(F)c4)c(=O)n(CCC#N)c3n2)cc1	i	3.7e-08	9.4%	i	-27%
CCC1CCCCN1C(=O)N[C@@H](Cc1ccccc1)C(=O)O (some centres undefined)	i	2.3e-08	-1.1%	i	-3%
CCn1c(=O)n(CC)c2cc(S(=O)(=O)NCCOc3ccccc3)c(C)cc21	i	6.1e-09	-0.5%	i	13%
CCOC(=O)N1CCN(CCC(=O)Nc2ccc(OC)cc2)CC1	.	.	-1.0%	.	-4%
Cc1ccc(S(=O)(=O)NCCCCC(NC(=O)OC(C)(C)C)C(=O)O)cc1 (centres undefined) (tested in a mixture with another compound)	i	1e-09	1.4%	i	?
O=C(COc1nnnc2ccccc12)N1CCCc2ccccc21	i	3.2e-08	-0.5%	i	-4%
COc1ccc(C2(O)CCN(C(=O)c3c(F)cccc3F)CC2)cc1	i	3.1e-08	-0.3%	i	2%

Shown bar-delimited: entries from further up.
mol | A488 autofl | A647 autofl | AID923 | Resorufin fluor | TSHR agonist
Cc1ccc(S(=O)(=O)NCCCCC(NC(=O)OC(C)(C)C)C(=O)O)cc1 (centres undefined) (tested in a mixture with another compound) | i | 1e-09 | 1.4% | i | ?
O=C(COc1nnnc2ccccc12)N1CCCc2ccccc21 | i | 3.2e-08 | -0.5% | i | -4%
COc1ccc(C2(O)CCN(C(=O)c3c(F)cccc3F)CC2)cc1 | i | 3.1e-08 | -0.3% | i | 2%

For reference, part of the list above:
SMILES	A488 autofl	A647 autofl	AID923	Resorufin fluor	TSHR agonist
CCCc1cc(=O)[nH]c(Nc2ccc(OC)c(Cl)c2)n1	i	1e-09	0.5%	i	-3%
CCCn1c(CN2CCCCC2CC)nc2c1c(=O)n(C)c(=O)n2C (centres undefined)	.	.	-2.1%	.	?
CC1CN(C(=O)c2ccc(C(=O)c3ccccc3)cc2)CC(C)O1 (centres undefined)	i	1.5e-09	0.4%	i	1%
CN(C)c1nc(SCC#N)nc(N(C)C)n1	i	2.7e-09	2.4%	i	-2%
COc1cccc(N2C(=O)Nc3ccccc3C2(O)C(=O)NCc2ccc3c(c2)OCO3)c1 (centres undefined)	i	1e-09	0.6%	i	2%
COc1ccc(C(CC(=O)O)NC(=O)c2ccccc2)cc1OC (centres undefined)	i	2.8e-08	-0.1%	i	14%[11.4 µM]
CCC(C)NC(=O)C1c2ccccc2C(=O)N1Cc1ccccc1OC (centres undefined)	i	1e-09	-0.4%	i	15%

The list goes on.
SMILES	A488 autofl	A647 autofl	AID923	Resorufin fluor	TSHR agonist
Cn1cccc1C(=O)N1CCC[C@@]2(CCN(c3ccccn3)C2)C1	i	2.4e-09	-0.8%	i	12%
c1ccc2c(c1)c1ccccc1n2Cn1c2ccccc2c2ccccc21	i	1.9e-09	2.2%[11.5 µM]	i	4%[11.4 µM]
O=C1NCCCC1C(=O)Nc1cccc(C(F)(F)F)c1 (centres undefined)	i	3e-08	-0.6%	i	3%
CCN(CC)S(=O)(=O)c1cc(C(=O)Nc2nncs2)c(Cl)cc1Cl	i	1.6e-08	-0.4%	i	.
Cn1cc(S(=O)(=O)N2CCc3ccccc3C2)c(=O)n(C)c1=O	.	.	-4.4%	.	-7%
O=C(Nc1ccccc1C(=O)NCC1CCCO1)c1ccco1 (centres undefined)	i	3.1e-08	1.4%	i	6%
CCOC(=O)C1CCCN(C(=O)c2ccc(OC(C)=O)cc2)C1 (centres undefined)	.	.	-0.6%	.	1%[11.4 µM]
CC1=C(C(=O)OC(C)C)C(c2cccc(F)c2)N2C(=O)C(C)SC2=N1 (centres undefined)	i	4.5e-09	-0.9%	i	?
Cc1ccc(B(O)O)cc1	.	.	-2.9%	.	-4%
COc1ccc(-n2cnnc2SCc2cnc(-c3ccccc3)s2)cc1	i	3.8e-09	-2.0%	i	14%
CCOC(=O)N1CCN(C(=O)C2CCC(C(=O)N3CCN(C(=O)OCC)CC3)CC2)CC1 (centres undefined)	i	1e-09	-0.9%	i	-4%
CC(=O)c1c(N2CCN(c3ccccc3)CC2)nc(=S)n(-c2ccccc2)c1C	.	.	3.5%	.	-15%
COc1ccc(N2CCN(Cc3nc(N)nc(Nc4ccccc4OC)n3)CC2)cc1	i	2.1e-09	-0.4%	i	5%
Cc1ccnc2c(N3C(=O)C4C5C=CC(C5)C4(C)C3=O)cccc12 (centres undefined)	.	.	0.8%	.	2%
O=C(CCCC(=O)N(CC(=O)NC1CCCC1)Cc1ccc(F)cc1)Nc1ccccn1	i	1e-09	-1.2%	i	3%
COC(=O)C1=C(C)N(c2cccc(C(C)=O)c2)C(=O)C1	i	8.9e-09	0.9%	i	?
Cn1nc(-c2ccc(Cl)cc2)c2cc(C(=O)N3CCN(C(=O)c4ccco4)CC3)sc21	.	.	-2.4%	.	-3%
CCOc1cc(NC(=O)c2ccco2)c(OCC)cc1NC(=O)CCC(=O)NCc1cccnc1	i	1.6e-08	-1.4%	i	-11%
COC(=O)Nc1ccc2c(c1)ncn2C1CCCCC1	i	3e-08	1.4%	i	14%[11.4 µM]
CC(NC(=O)OC(C)(C)C)C(=O)N1CCCC1C(=O)NC(Cc1ccccc1)C(N)=O (centres undefined)	i	8e-09	1.1%	i	28%
